Beta cell apopt = inhibitors of cytokine-induced beta cell apoptosis, primary screen, luminescence; protection from apoptosis, % (test concentration not listed); 0.8% of 300,000 active; INS-1E cytokine-induced death, ATP luminescence, 48 h; percent of positive-control rescue, neutral wells zero; AID 435005, 2010;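 active means all replicates at 75% or more, or half of them and the mean; inconclusive means half reach 75% but not the mean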;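 further: 0% = cytokine-treated negative control wells and 100% = positive control rescue; higher means more ATP so stronger rescue from cytokine killing; wells of about 40 µL received 100 nL stock; the first replicate is given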
rRNA inh HTS = reduced GFP signal of wild-type E. coli, primary screen, bacterial rRNA inhibitor project, GFP/RFP fluorescence, OD600, single point; E. coli WT GFP vs humanized-ribosome RFP mutants, 24 h; stronger effect = lower value; DMSO median 0, no signal -100; GFP signal change (wild-type ribosome), % (test concentration not listed); 1.6% of 350,000 active;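 active means significant combined selectivity score with lowered wild-type GFP, culture density cut under 30%, mutant RFP and density less affected; inactive means any of these conditions unmet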; further: one replicate is shown; some compounds called inactive have numbers as strong as hits
Calb FLC = C. albicans growth inhibition with fluconazole, primary screen, CaCi-2 strain, Alamar Blue fluorescence. C. albicans CaCi-2 (fluconazole-resistant clinical isolate) + fluconazole, 48 h. growth inhibition, % (no concentration beside the values). 0.57% of 300,000 active. AID 1979, 2009;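 active means most replicates above 75%; inconclusive means exactly half above 75%; inactive means most below 75%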;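 further: all wells also contain fluconazole at 8 µg/ml as a sub-toxic cotreatment; 0% = median of DMSO wells and 100% = median of geldanamycin control wells; wells of about 8 µL received 7.5 nL stock; the first replicate is given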
AF4-AF9 inh = inhibitors of AF4 peptide binding to AF9, primary screen, biochemical, AlphaScreen, biotin-AF4 peptide, FLAG-AF9, single point; Protein AF-9 (Homo sapiens), P42568; inhibition, % at 10 µM; 0.47% of 350,000 active;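 active means every replicate reaching a set inhibition limit, whatever the replicate mean, cut at about 25% in these data; inconclusive means mean inhibition reaches that limit but some replicates miss it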;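 further: 0% = plate neutral control median and 100% = total signal loss; the record names both 10 and 1 µM as test concentration; the first replicate is given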
Target sequence (P42568 whole entry, looked up): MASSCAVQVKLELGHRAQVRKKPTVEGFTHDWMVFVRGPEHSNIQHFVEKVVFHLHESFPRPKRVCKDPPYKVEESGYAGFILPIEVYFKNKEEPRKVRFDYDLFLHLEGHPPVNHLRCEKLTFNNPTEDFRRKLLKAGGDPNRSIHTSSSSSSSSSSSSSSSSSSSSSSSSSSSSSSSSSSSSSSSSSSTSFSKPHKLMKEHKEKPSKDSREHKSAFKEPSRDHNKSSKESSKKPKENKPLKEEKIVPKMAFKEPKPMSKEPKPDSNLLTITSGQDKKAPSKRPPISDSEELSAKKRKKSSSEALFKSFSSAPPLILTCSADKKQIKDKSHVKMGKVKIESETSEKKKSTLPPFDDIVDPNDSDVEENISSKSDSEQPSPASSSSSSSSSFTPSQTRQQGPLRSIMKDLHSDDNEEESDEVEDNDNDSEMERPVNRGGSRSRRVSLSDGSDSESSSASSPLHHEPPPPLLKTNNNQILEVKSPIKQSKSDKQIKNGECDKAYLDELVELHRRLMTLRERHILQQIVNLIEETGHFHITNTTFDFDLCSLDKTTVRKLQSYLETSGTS
T cruzi inh = inhibitors of intracellular T. cruzi growth, primary screen, luminescence, NIH3T3 host cells | T. cruzi beta-gal in NIH3T3, 90 h | inhibition, % (test concentration not listed) | 1.4% of 300,000 active;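 active means mean inhibition across valid replicates above about 55%, limit read from the data; inconclusive means mean below that limit but half or more replicates reach it; inactive means mean below it, under half of replicates reach it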;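 further: signal also drops with host cell toxicity which is not excluded here; 0% = plate median of DMSO wells and 100% = zero luminescence signal; higher percent means less beta-gal luminescence so fewer parasites; stock transfer was 50 nL into about 50 µL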
Vif A3G = inhibitors of Vif binding to APOBEC3G peptide, primary screen, biochemical, TR-FRET, GST-Vif 1-94, biotin-A3G peptide, dose response retest (AID 1117319) | 0.57% of 260,000 active | one-dose inhibition, %; IC50 in µM for titrated hits | TR-FRET GST-Vif / biotin-A3G peptide binding; higher % means a stronger effect; test concentration not given here; strong numbers were not always called active | Virion infectivity factor (Human immunodeficiency virus type 1 group M subtype B (isolate …;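 active means above the screen mean plus three standard deviations and confirmed in dose response; inconclusive means results disagree or hit not tested in dose response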;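 further: Vif residues 1-94 fused to GST binding biotinylated APOBEC3G peptide 110-148; 0% = full assay without inhibitor and 100% = GST in place of GST-Vif; retest series ran down from 100 µM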
RanGTP-Impb inh = inhibitors of RanGTP-importin-beta interaction, primary screen, biochemical, FRET, CFP-Ran, YFP-importin-beta, homogeneous; Ran GTPase (GTP-bound) - importin-beta complex; cell-free CFP-Ran/YFP-importin-beta FRET ratio; inhibition, % (test concentration not listed); 1.1% of 300,000 active; AID 2216, 2009;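 active means most replicates above 15%; inconclusive means exactly half above 15%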;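 further: 0% = DMSO wells and 100% = Ran loaded with GDP instead of GTP; wells of about 40 µL received 100 nL stock; the first replicate is given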
Bfl-1 A1 inh = caspase 3/7 activation in MEF A1-2A-BIM cells, primary screen, A1 inhibitor project, cell-based, luminescence, HTS. 0.066% of 330,000 active. AID 2462, 2010. caspase activation, % (concentration not given with the values). Caspase-Glo 3/7 luminescence, 3 h; percent of clofoctol response, vehicle zero;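 active means over half of replicate activation scores above 10%, or exactly half above 10 with the replicate mean above 10; inconclusive means replicate mean below 10 yet half the replicates above 10; inactive means over half of replicates below 10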;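 further: wells of about 30 µL received 50 nL stock; many hits fall short of the cut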
rRNA inh HTS OD600 = also measured in rRNA inh HTS; calls as there; OD600 change, %; measured here: OD600 growth;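 optical density of the mix in the first replicate; 0 = DMSO median and -100 = no signal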
rRNA inh HTS RFP = further read-out of rRNA inh HTS, marked with its call; RFP signal change, %; measured here: RFP humanized mutant strains;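 first replicate; 0 = DMSO median and -100 = no signal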
* hit, by the source's call; ? = inconclusive; . = no result given. Some of the compounds tested; rates above refer to the full screens.

SMILES	Beta cell apopt	rRNA inh HTS	rRNA inh HTS OD600	rRNA inh HTS RFP	Calb FLC	AF4-AF9 inh	T cruzi inh	Vif A3G	RanGTP-Impb inh	Bfl-1 A1 inh
CC(C)n1ncc2c(C(=O)Nc3cccc(C#N)c3)cc(C3CC3)nc21	12	.	.	.	.	3.6	.	-5%	.	-0.4
CC(=O)Nc1ccc2nc(SCC(=O)O)sc2c1	0	6	12	-2.7	2	.	-2	-2%	0.7	-0.3
O=S(=O)(c1ccccc1)[C@@]1(c2ccc(Br)cc2)C[C@@H]2ON=C(c3cccc(Br)c3)[C@@H]2C1	-2	9	6	-5.4	15	-2.5	-6	.	8.1	-2.6
Cc1ccc(N2CN=c3s/c(=C\c4ccccn4)c(=O)n3C2)cc1	.	.	.	.	?	.	-3	24%	-2.5	-0.2
Cc1ccc(-c2ccnc3nc(-n4cccc4)nn23)o1	0	12	10	5.4	10	0.0	1	0%	1.0	0.1
CC(C)c1ccc(/C=C/C(=O)NNC(=O)c2cccnc2)cc1	-4	.	.	.	0	.	-6	3%	0.5	-0.6
COc1ccccc1CCNC(=O)CCn1c(=O)oc2ccccc21	-4	-4	-14	-3.6	7	-4.6	1	-1%	1.1	-0.4
Cc1ccc(/C=C/C(=O)c2ccccc(=O)c2O)c(C)c1	70	-10	-10	-0.2	92*	12	28	32%	1.1	-0.5
Cc1ccc(S(=O)(=O)CCC(=O)N2CCc3ccccc32)cc1	-10	.	.	.	-1	.	0	-7%	1.0	-0.4
COc1ccc(NC(=O)CSc2ccc(NC(C)=O)cc2)cc1S(=O)(=O)N1CCCCC1	11	.	.	.	3	.	-5	12%	-0.3	0.9
COc1cc(OC)cc(C(=O)OCC(=O)NC2CCCCCC2)c1	-4	12	18	-0.4	.	0.2	.	-4%	.	0.2
Cc1ccc(S(=O)(=O)c2nc(S(C)(=O)=O)sc2N2CCC(C(N)=O)CC2)cc1	-21	5	3	-0.5	-7	-7.5	-15	3%	-0.9	0.1
COc1cc(OC)cc(C(=O)NNS(=O)(=O)c2ccc(F)cc2)c1	3	-5	-1	-2.1	-1	0.0	-8	.	-1.5	0.3
CNc1ccccc1C(=O)OCC(=O)c1ccc(F)cc1	3	16	12	-1.1	-9	-1.3	-6	-11%	-7.0	-0.5
CC(C)Oc1ccc(C2CC(=O)N(C)C2=O)cc1 (stereo unspecified)	3	7	13	2.6	-1	-4.1	-1	.	-3.6	0.4

Seven compounds already listed, arranged by the number in Bfl-1 A1 inh, falling:
canonical_smiles	rRNA inh HTS	rRNA inh HTS OD600	rRNA inh HTS RFP	AF4-AF9 inh	Vif A3G	RanGTP-Impb inh	Bfl-1 A1 inh
CC(C)Oc1ccc(C2CC(=O)N(C)C2=O)cc1 (stereo unspecified)	7	13	2.6	-4.1	.	-3.6	0.4
COc1cc(OC)cc(C(=O)OCC(=O)NC2CCCCCC2)c1	12	18	-0.4	0.2	-4%	.	0.2
Cc1ccc(-c2ccnc3nc(-n4cccc4)nn23)o1	12	10	5.4	0.0	0%	1.0	0.1
Cc1ccc(N2CN=c3s/c(=C\c4ccccn4)c(=O)n3C2)cc1	.	.	.	.	24%	-2.5	-0.2
CC(=O)Nc1ccc2nc(SCC(=O)O)sc2c1	6	12	-2.7	.	-2%	0.7	-0.3
Cc1ccc(S(=O)(=O)CCC(=O)N2CCc3ccccc32)cc1	.	.	.	.	-7%	1.0	-0.4
Cc1ccc(/C=C/C(=O)c2ccccc(=O)c2O)c(C)c1	-10	-10	-0.2	12	32%	1.1	-0.5

New compounds follow:
SMILES	Beta cell apopt	rRNA inh HTS	rRNA inh HTS OD600	rRNA inh HTS RFP	Calb FLC	AF4-AF9 inh	T cruzi inh	Vif A3G	RanGTP-Impb inh	Bfl-1 A1 inh
COc1ccc(NC(=O)CNc2cc(S(=O)(=O)N3CCOCC3)ccc2N2CCOCC2)c(OC)c1	-2	10	18	-3.4	.	0.8	.	.	.	0.6
COC(=O)c1ccc(CNC(=O)COC(=O)C2CC3C=CC2C3)cc1 (stereo unspecified)	-10	-8	-14	-2.4	21	-9.6	5	-3%	6.1	0.0
COc1ccc(-c2csc(N=C(N)N)n2)cc1	-1	-10	-15	0.5	6	7.4	1	.	3.9	-0.1
Cc1ccc(Cl)cc1NC(=O)NCCN1CCCCC1	-2	-3	1	-1.2	16	-0.7	-11	-6%	-1.0	0.1
O=C1C=C(c2ccccc2)CC(c2cccs2)C1n1cnc([N+](=O)[O-])c1 (stereo unspecified)	4	.	.	.	3	.	-9	16%	2.7	0.6
OCCC1CN(Cc2nc(-c3ccccc3)cs2)CCN1CCc1ccccc1 (stereo unspecified)	1	-18	-19	-0.8	-18	5.5	33	0%	4.4	0.5
Cn1nnnc1SCC(=O)Nc1nc2ccccc2s1	0	8	11	-7.0	-6	1.3	1	-5%	0.4	-1.3
Cc1ccc(C23CC4CC(CC(C(=O)NN)(C4)C2)C3)cc1	-3	2	-11	0.4	0	0.2	24	.	-0.6	0.1
COc1ncccc1C(=O)N1CCCC(N2CCN(c3ccc(F)cc3)CC2)C1 (stereo unspecified)	-4	4	5	-0.3	-1	-2.1	-17	.	4.3	-0.1
COc1ccccc1C(=O)COC(=O)c1cccs1	-3	-24*	-5.2*	0.7*	.	-2.8	.	-8%	.	-2.5
CCOc1ccc(N2C(=O)CC(NC3CCCCNC3=O)C2=O)cc1 (stereo unspecified)	-7	.	.	.	5	.	-21	3%	-0.4	1.1
O=C(NCCn1c(C(F)(F)F)nc2ccccc21)[C@H]1CCCN1c1nc(CN2CCCCC2)cs1	-9	11	22	4.1	-3	1.5	-8	.	-1.6	0.1
NC(=O)c1ccc(NC(=O)COC(=O)c2cc([N+](=O)[O-])ccc2N2CCOCC2)cc1	.	2	-8	1.6	2	2.2	-7	5%	1.7	-0.8
COc1ccc(CCNC(=S)Nc2cc(C)ccc2C)cc1	6	.	.	.	0	.	-10	3%	-0.5	0.7
Oc1ccc(N2CCN(C(c3cccs3)c3nnnn3CCc3ccccc3)CC2)cc1 (stereo unspecified)	0	.	.	.	3	.	-13	26%	2.6	1.3
CCC(C(=O)OCC(=O)c1ccc2c(c1)NC(=O)CO2)c1ccccc1 (stereo unspecified)	5	-38	-42	-26	4	1.2	-5	11%	5.8	0.3
Cc1ccc(NC(=O)CN(C)CC(=O)Nc2cccc(F)c2)cc1S(=O)(=O)N1CCCCCC1	-5	-31	-48	3.6	8	2.6	40	2%	-4.3	-0.1
O=C(c1ccc(F)cc1)N1CCC(C(=O)N2CCN(S(=O)(=O)c3ccccc3Br)CC2)CC1	2	-13	-6	0.3	5	12	26	-1%	4.2	0.0
C=CCn1c(SCC(=O)NC2CCCCC2)nnc1C(C)NC(=O)c1cccs1 (stereo unspecified)	-2	.	.	.	-2	.	17	-6%	?	0.5
Cc1nc(C)n(C(C)CNC(=O)c2ccco2)n1 (stereo unspecified)	-6	10	13	1.6	16	-0.9	-13	.	-1.5	0.2
O=C(c1cccnc1)N1CCc2ccccc21	2	.	.	.	9	.	-6	1%	2.2	-0.4
COc1cc(C(=O)NCC(=O)OCc2ccc(F)cc2)cc(OC)c1OC	5	3	3	-2.4	.	-6.1	.	.	.	0.1
Cc1cc(C)nc(N2CCCC(C(=O)Nc3ccc(F)cc3)C2)n1 (stereo unspecified)	0	6	14	0.9	5	-1.5	-2	-4%	0.4	0.4
Cc1ccc(CCNC(=O)CNC(=O)c2cccs2)cc1	-4	4	14	3.9	0	1.4	-5	-4%	-3.2	-0.2
Cc1c(C(=O)N2CCCCCC2)c(S(=O)(=O)NCc2ccccc2Cl)c(C)n1C	.	-1	-10	0.4	-7	7.8	15	-7%	5.0	-0.2
C#CCOCCOCCOCCNc1nc(N2CCOCC2)nc(N2CCN(C(=O)Cn3cc(CC(C)O)nn3)CC2)n1 (stereo unspecified)	-3	7	3	11	-8	-2.4	-8	-13%	0.0	0.0
COc1cccc(OC)c1C(=O)NC(=O)Oc1c(F)cccc1F	2	3	11	0.8	21	-2.2	-2	1%	7.2	0.4
COc1ccc(NC(=O)c2cc3ccccc3o/c2=N\NS(=O)(=O)c2ccc(C)cc2)cc1	6	-3	-5	-1.5	37	-1.3	-10	.	-2.5	2.8
CN(CC(=O)Nc1cccc(F)c1)C(=O)c1cccc(S(=O)(=O)N2CC3(C)CC2CC(C)(C)C3)c1 (stereo unspecified)	-6	-7	-14	-0.1	2	-9.6	23	-6%	7.2	-0.2
COC(=O)c1sc(N2C(=O)C(=O)/C(=C(/O)c3ccccc3)C2c2ccco2)nc1C (stereo unspecified)	0	-34*	-18*	-0.1*	17	0.2	0	.	0.5	-0.1
O=C(NCCC1CCCCN1S(=O)(=O)c1ccccc1)C(=O)NCc1ccco1 (stereo unspecified)	-5	-2	-6	1.0	5	1.0	-7	-10%	0.0	-0.3
O=C(CCSc1ccccc1)Nc1ncccn1	2	2	-2	-3.8	-5	3.3	-4	7%	-0.6	-0.1
OC(c1nnc(-c2ccccc2)o1)c1cccs1 (stereo unspecified)	-3	10	3	2.1	-14	0.4	-10	-1%	-0.8	-0.8
c1ccc(-c2csc(NC3=NCCCCC3)n2)cc1	-6	7	12	-0.8	-5	-1.8	25	-1%	4.6	-0.7
COC(=O)[C@]1(Cc2ccccc2)N[C@H](CN(C)C(=O)c2ccccc2)[C@@H]2C(=O)N(Cc3ccccc3)C(=O)[C@@H]21	-6	-4	-10	-1.2	.	1.1	.	.	.	-0.6

Ordered by length of the SMILES (rising): part of the list above.
SMILES	Beta cell apopt	rRNA inh HTS	rRNA inh HTS OD600	rRNA inh HTS RFP	Calb FLC	AF4-AF9 inh	T cruzi inh	Vif A3G	RanGTP-Impb inh	Bfl-1 A1 inh
O=C(CCSc1ccccc1)Nc1ncccn1	2	2	-2	-3.8	-5	3.3	-4	7%	-0.6	-0.1
OC(c1nnc(-c2ccccc2)o1)c1cccs1 (stereo unspecified)	-3	10	3	2.1	-14	0.4	-10	-1%	-0.8	-0.8
O=C(NCCC1CCCCN1S(=O)(=O)c1ccccc1)C(=O)NCc1ccco1 (stereo unspecified)	-5	-2	-6	1.0	5	1.0	-7	-10%	0.0	-0.3

Compound activity: PubChem, several laboratories
